# High-throughput results deposited in PubChem BioAssay by National Center for Advancing Translational Sciences (NCATS).
# Vaccinia mCherry: inhibitors of vaccinia virus infection (mCherry reporter signal) | 310,000 compounds, 0.63% hits | AID 720579 | Potency, µM (doses to about 36.5 µM), inactives show at the top dose activity change, negative = inhibition, actives largely listed as inhibitors | Vaccinia virus mCherry reporter infection, fluorescence; about a quarter of the inactives have no number; active = well fitted inhibition curve with a large enough effect; inconclusive = small, poorly fitted or top-dose-only effect; inactive = no such curve, though single readings can be large or run the other way; tested in A549 cells; also: nearly all actives have a fitted effect of over 35% in size; inactives centre near -10
# VACV Venus inh: vaccinia inhibition (Venus reporter); Vaccinia virus Venus reporter expression, fluorescence; AID 720580; Potency, µM (highest dose often 36.5 µM), without a hit: at the highest dose activity change, negative = inhibition, hits mostly inhibitors; 330,000 compounds, 0.46% hits; active means well fitted inhibition curve with a large enough effect; inconclusive means small, poorly fitted or top-dose-only effect; inactive means no such curve, though single readings can be large or run the other way; tested in A549 cells; also: nearly all actives have a fitted effect of over 30% in size; inactives centre near -10
# An asterisk follows results filed as active; i = inactive; u = inconclusive; x = not tested or not shown; [ ] = remark or other dose. % is scaled to controls: 0 for no effect and ±100 for the full control effect; potency is read from the fitted curve at half-maximal effect.
SMILES,Vaccinia mCherry,VACV Venus inh
Cc1ccc(CS(=O)Cc2ccc(C(=O)NCc3ccccc3)o2)cc1 (centres undefined),-14.1%,-1.6%
Cc1ccccc1-n1c(=O)n(Cc2ccccc2)c(=O)c2[nH]cnc21,i,-16.8%
CC(C)c1cc(C(=O)N2CCCC(CCC(=O)NCc3ccccc3F)C2)n(C)n1 (centres undefined),-25.6%,-21.6%
Cc1ccc(NC(=O)CSCC(=O)N2CCCc3ccccc32)cc1,-20.4%,-1.0%
O=C(NCCc1csc(-c2ccc(F)cc2)n1)c1cccs1,-9.0%,5.1%
CCN(C)C1CN(Cc2cn(Cc3ccc(C(F)(F)F)cc3)nn2)S(=O)(=O)C1 (centres undefined),-5.8%,-5.0%
CC(Sc1nnc(-c2cccs2)n1-c1ccccc1)C(=O)NCc1ccc2c(c1)OCO2 (centres undefined),x,u
C=CCNC(=S)N(Cc1ccccc1)Cc1ccc(F)cc1,-7.6%,-7.9%
Cc1cc(C)cc(NC(=O)c2cc(CN3CCCC3)on2)c1,-2.9%,-7.5%
COc1ccccc1N(Cc1ccccc1)S(=O)(=O)c1cccc(C(=O)Nc2cc(C)ccn2)c1,i,-21.9%
Cc1cc2cc(CNC(=O)Nc3cccc(Cl)c3)ccc2n1C,-9.7%,21.9%
C[C@H](NC(=O)[C@H](Cc1ccccc1)n1c(=O)[nH]c2ccccc2c1=O)C(=O)N1CCC[C@H]1C(=O)O,14.4%,6.5%
Cc1cccc(OCCn2nc(C(=O)O)c3ccccc3c2=O)c1,x,-14.9%
CCCCC1=NN(C(=O)c2ccncc2)C(O)(C(F)(F)F)C1 (centres undefined),i,-6.7%
C#CCOCCOCCOCCNc1nc(N2CCN(C(=O)[C@H]([C@@H](C)CC)n3cc([C@@H](N)Cc4ccc(O)cc4)nn3)CC2)nc(N2CCN(C(=O)[C@H](Cc3cc4ccccc4[nH]3)n3cc([C@@H](N)CC(C)C)nn3)CC2)n1,i,-8.5%

# Further records
SMILES,Vaccinia mCherry,VACV Venus inh
COc1ccc(-n2nnnc2SCC(=O)Nc2ccc3c(c2)OCCO3)c(OC)c1,-7.4%,-11.3%
CC(Sc1nnc(N)s1)C(=O)Nc1nccs1 (centres undefined),i,6.7%
OC(Cc1ccncc1)c1ccccc1Cl (centres undefined),i,0.9%
CCOc1ccccc1C(=O)NCC(=O)Nc1ncccc1C,-12.8%,-0.1%
CS(=O)(=O)c1ccc(C2=C(CNC(=O)c3ccncc3)[C@H]3CC[C@@H](C2)N3CCOc2ccccc2)cc1,-12.6%,-4.4%
COc1cc(/C=N/NC(=O)c2cc(O)cc(O)c2)ccc1OC(=O)c1ccccc1,-14.0%,-13.7%
O=C(COC(=O)c1cccs1)Nc1nnc(-c2ccccc2)o1,i,-2.2%
C=CCn1c(=S)[nH]c2cc(C(=O)Nc3ccc(OC)c(OC)c3)ccc2c1=O,-18.9%,-5.7%
COc1ccc(Cc2nc3ccc(C(=O)NCC4COCCO4)cc3o2)cc1 (centres undefined),-1.1%,-10.2%
Cc1ccc(NC(=O)c2cc(=O)[nH]c3ccccc23)cc1C,-1.5%,0.7%
Cn1c(=O)c2[nH]cnc2n(-c2ccccc2)c1=O,x,-11.6%
CCOC(=O)c1c(C)n(-c2ccccc2)c2ccc(OC(=O)c3ccc(OCC)c(OCC)c3)cc12,-16.3%,2.1%
CCn1c(Cc2ccccc2)nnc1SC(C)C(=O)NC1CC1 (centres undefined),i,-11.1%
Cc1ccc(NC(=S)N(CCCN2CCOCC2)Cc2cccs2)c(C)c1,-26.9%,-12.4%
O=C(Cc1ccccc1)N1CCC(C(=O)N2CCN(c3ccc(F)cc3)CC2)CC1,-11.6%,-15.1%

# 3 entries picked at random from those above:
SMILES,Vaccinia mCherry,VACV Venus inh
COc1cc(/C=N/NC(=O)c2cc(O)cc(O)c2)ccc1OC(=O)c1ccccc1,-14.0%,-13.7%
Cc1ccc(NC(=O)c2cc(=O)[nH]c3ccccc23)cc1C,-1.5%,0.7%
O=C(Cc1ccccc1)N1CCC(C(=O)N2CCN(c3ccc(F)cc3)CC2)CC1,-11.6%,-15.1%

# (cont.)
SMILES,Vaccinia mCherry,VACV Venus inh
CC1(C(O)(C#CCN2CCCCC2)c2ccccc2)CCCC1 (centres undefined),i,-3.8%
CCCCC(CC)CNC(=O)c1ccc(Cn2c(=O)[nH]c3cc(OC)c(OC)cc3c2=O)cc1 (centres undefined),u,u
COC(=O)c1sc(N)c(C(=O)OC)c1CSc1nnnn1C,x,-17.3%
Cc1nnc(N2CCC(C(=O)NCc3ccc(F)cc3)CC2)c2nn(-c3ccc(Cl)cc3)c(C)c12,u,u
Cc1cccc(C)c1NC(=O)C1NC(=O)CC1c1ccccc1 (centres undefined),-14.2%,0.6%
Cc1nc(N2CCOCC2)c2c(C(=O)NCc3cccc(Cl)c3)c(C)oc2n1,i,-9.4%
CC(C)(C)c1nn2cnnc2n(/N=C/c2ccc(O)cc2)c1=O,-8.2%,-6.6%
CCN(CC)S(=O)(=O)c1cc(C)ccc1SC,-10.4%,-9.8%
CC1CCN(C(=O)c2ccc(NS(=O)(=O)c3cccs3)cc2)CC1,-17.9%,-0.3%
COc1ccccc1CNC(=O)C1(c2cccs2)CCOCC1,-8.5%,6.5%
Cc1cccc(-c2nc(CN3CCN(C(=O)C4CCCO4)CC3)cs2)c1 (centres undefined),-7.0%,-22.1%
O=S(=O)(Nc1ccccn1)c1cccs1,-13.2%,-11.9%
O=C(NCc1cccc(C(F)(F)F)c1)C1CC(c2cccc(F)c2)=NO1 (centres undefined),i,4.6%
CCCc1ccc(C(=O)NC(=O)c2ccccc2O)cc1,i[7.34 µM],-1.6%[7.34 µM]
C=CCn1c(SCC(=O)NC2CC2)nnc1-c1cccc(OC)c1,-14.0%,-12.6%

# Carrying on.
SMILES,Vaccinia mCherry,VACV Venus inh
Cc1ccc(OP(=O)(O)Oc2ccc(C)cc2)cc1,i,-17.7%
Cc1cc(N(CN2CCCC2=O)C(=O)c2ccc(OC(C)C)cc2)no1,-3.5%,-0.5%
COCCN(C(=O)CNC(=O)c1ccco1)C(C(=O)NC1CCCCC1)c1cccc(OC)c1 (centres undefined),-13.8%,-5.7%
CCC(C)(C)NC(=O)C(c1ccc(OC)cc1)N(CCOC)C(=O)CCC(=O)Nc1nccs1 (centres undefined),i,-11.1%
Oc1ccc2ccc3[nH]cnc3c2c1,-3.3%,-22.0%
C=CCn1c(O)c(N=NC(=O)CNC(=O)c2ccncc2)c2ccccc21,-2.4%,-23.8%
CCCCCCCCCCC1=C(C)C(=O)C(OC)=C(OC)C1=O,-12.3%[60.7 µM],-14.8%[60.7 µM]
COC(=O)[C@@]1(Cc2ccccc2)[C@@H]2C(=CC(=O)[C@H]2CC(=O)C(=O)N(C)C)CN1C(=O)c1ccccc1,u,u
Cc1ccc(C(=O)Oc2cccnc2)cc1[N+](=O)[O-],i,-11.5%
COc1ccc(Br)cc1C(=O)NC(=S)Nc1cc(-c2nc3ccccc3[nH]2)ccc1C,0.0%,-12.1%
CCCC1=C(C(=O)OCC)C(c2ccco2)C(C#N)=C(N)O1 (centres undefined),-24.6%,-7.3%
CCN(C[C@H]1N[C@@](C)(C(=O)OC)[C@H]2C(=O)N(C)C(=O)[C@@H]12)C(=O)Nc1ccc(C(F)(F)F)cc1,-10.3%,0.0%
Cc1ccc(NC(=O)C2C3C=CC4(O3)C2C(=O)N(CCCN2CCOCC2)C4C(=O)NC2CCCCC2)cc1Cl (centres undefined),i,-11.5%
COc1ccc(NC(=O)C[C@@H]2C(=O)N(c3ccc(OC)cc3)CC2(C)C)cc1,-6.6%,-15.7%
COCCSc1nnc(NC(=O)C2CC(=O)N(c3ccccc3)C2)s1 (centres undefined),-14.8%,-17.7%

# Profiles as entered above. Order of values: Vaccinia mCherry, VACV Venus inh
# `CCN(C[C@H]1N[C@@](C)(C(=O)OC)[C@H]2C(=O)N(C)C(=O)[C@@H]12)C(=O)Nc1ccc(C(F)(F)F)cc1` across the screens: -10.3%, 0.0%
# `CCCC1=C(C(=O)OCC)C(c2ccco2)C(C#N)=C(N)O1` (centres undefined) across the screens: -24.6%, -7.3%

# Later entries:
SMILES,Vaccinia mCherry,VACV Venus inh
ON=C(c1ccccc1)c1ccc2c3c(cccc13)CC2,-19.7%,u
O=C(NCC1CCCO1)c1cccc(Oc2ccccc2)c1 (centres undefined),-16.4%,-6.0%
COc1ccc2c(C)c(C)c(=O)oc2c1OC,-15.5%,-9.1%
O=C(OCC#CCSc1nnc(-c2ccncc2)o1)c1sc2ccccc2c1Cl,i,-11.9%
COc1cc(CNC(=O)c2cc(C(=O)NCc3cc(OC)cc(OC)c3)n(C)n2)cc(OC)c1,-4.7%,-5.0%
O=C(N[C@@H]1CC[C@@H](CCNS(=O)(=O)c2ccc(Cl)cc2)O[C@@H]1CO)c1cccnc1,-2.9%,-4.5%
Clc1nc(NCCN2CCOCC2)nc(NCc2ccccc2)n1,i,-4.3%
CCOC(=O)C1CCN(C(=O)Nc2ccc(Cl)cc2)CC1,-8.1%,-4.4%
Cc1cccc(N2C(=O)/C(=C/c3ccc(N4CCN(C)CC4)o3)C(=O)NC2=S)c1C,-10.2%,33.4%[activator]
CN1CCN(c2ccc(-c3cccc4nccn34)cn2)CC1,8.9%,9.3%
O=C(NCCN1CCN(Cc2ccccc2)CC1)C1c2ccccc2C(=O)N2CCc3ccccc3C12 (centres undefined),-19.1%,-11.0%
O=C(Cc1ccccc1F)Nc1cc(S(=O)(=O)N2CCOCC2)ccc1N1CCCC1,-15.2%,16.8%
O=C1C2CCCN2C(=O)N1CCCCN1CCN(c2ccccc2)CC1 (centres undefined),i,-7.2%
CC(=O)C1=C(O)C(=O)N(CCCO)C1c1ccccc1 (centres undefined),-19.5%,-15.7%
COc1ccc(CCN2C(=NC(C)=O)SC3CS(=O)(=O)CC32)cc1OC (centres undefined),i,-8.6%

# Continued.
SMILES,Vaccinia mCherry,VACV Venus inh
Cc1cccc(OP(=O)(Oc2cccc(C)c2)OC(c2ccccc2)C(F)(F)F)c1 (centres undefined),-21.0%,-20.5%
CCOC(=O)c1nn(-c2ccccc2)c(=O)cc1OCC(=O)Nc1cc(C)ccc1C,i,-10.4%
O=C(COc1ccccc1)Nc1sc2c(c1C(=O)Nc1ccccc1)CCCCC2,-17.8%,-1.8%
CCc1cc2c(=O)n(-c3ccccc3)cnc2s1,x,-18.4%
COc1cccc(C2c3c(-c4ccccc4)n[nH]c3C(=O)N2c2ccc(C(=O)O)cc2)c1 (centres undefined),-1.7%,-9.6%
Cc1ccc(S(=O)(=O)NCC(=O)N2CCc3ccccc3C2)cc1,i,8.7%
CS(=O)(=O)N(CC(=O)NC1CCCC1)Cc1ccc(F)cc1,0.0%,-2.6%
O=C(/C=C/c1ccc2c(c1)OCO2)NCc1ccc(F)cc1,-18.1%,-10.2%
CCOC(=O)c1c(N2C(=O)C3C4C=CC(O4)C3C2=O)sc2c1CCCC2 (centres undefined),i,-1.6%
CC(C)n1cnnc1SCC(=O)NC(=O)c1ccccc1,-17.1%,-4.9%
Cc1ccnc(NC(=O)c2ccc(COc3c(F)c(F)cc(F)c3F)o2)c1,-13.7%,-14.7%
CN(C)c1cccc2c1c(NC(=O)c1ccc(Cl)cc1)nn2C,u,-1.3%
COc1ccc(CN(C)Cc2cc(=O)n3ccsc3n2)c(OC)c1OC,i,-1.5%
CCOc1ccc(NC(=O)CSc2ccc3ccccc3n2)cc1,-8.4%,-12.2%
NC(=O)C1CCN(C(=O)Cc2ccc(-c3ccccc3)cc2)CC1,-2.4%,1.0%

# More structures.
SMILES,Vaccinia mCherry,VACV Venus inh
CN(C)N1C(N)=C(C#N)C(c2ccccc2Cl)C2=C1CCCC2=O (centres undefined),-13.5%,-8.3%
CCOc1cc(/C=C2/NC(=O)N(CC(=O)Nc3cccc(C)c3)C2=O)ccc1OCC(N)=O,-18.8%,-12.8%
Cc1cc(C)n2nc(SCC(=O)N3CCC(C(=O)O)CC3)nc2n1,-11.3%,-10.5%
Cc1ccc2c(c1)N(CC(=O)N1CCCc3ccccc31)C(=O)CO2,-18.6%,-14.6%
Cc1cccc(CN2CCCC(C(=O)c3ccc4c5c(cccc35)CC4)C2)n1 (centres undefined),11.8%[7.34 µM],10.9%[7.34 µM]
CCCCNC(=O)C1CCN(S(=O)(=O)c2cc(Br)cc3c2N(C(=O)CC)CC3)CC1,-9.9%,-8.7%
COc1ccc(NC(=O)C(c2ccccc2)N2CCN(c3ccccn3)CC2)cc1Cl (centres undefined),i,-7.9%
C=C1CCN([C@@H](CC(C)C)C(=O)NCc2ccc(OC)cc2)S(=O)(=O)c2ccccc21,-13.8%,-11.4%
Oc1c(Br)cc(Br)cc1CNn1cnnc1,i,-0.4%
O=C1CCCN1CCCn1cnc2c([nH]c3ccc(F)cc32)c1=O,x,-19.8%
COCCOC(=O)c1c(C)nc(SCC(=O)Nc2cccc3ccccc23)c(C#N)c1-c1ccco1,-7.6%,0.6%
NC(=S)NNC(=O)Nc1ccc(Cl)c(Cl)c1,-24.6%,-8.3%
CCn1ccc(=N)cc1,x,-18.8%
O=C(C[N+]1(CC#Cc2ccccc2)CCOCC1)c1ccc(Cl)cc1,-3.2%,-4.1%
O=C(NCc1ccccc1)c1cc(-c2ccncc2)nc2ccccc12,i,-11.7%
